Assay outcomes deposited in PubChem by National Center for Advancing Translational Sciences (NCATS).
TRPML1 ag: qHTS for Agonists of the Human Mucolipin Transient Receptor Potential 1 (TRPML1); TRPML1-expressing cells, Ca2+ dye fluorescence, FDSS; host cell line not named in the record; reference of the full effect not given here; actives 0.12% (n = 410,000); activation, % (concentration not given with the values); Mucolipin-1 (Homo sapiens), Q9GZU1; in the data active = activation above about 50%; inconclusive = about 30% to 50%; inactive = below about 30%; further: 0% is about no effect; the text of the record puts the active cut at 80%
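Tetracycline-induced TRPML1-DL cells are seeded and incubated overnight before loading with a no-wash Ca2+ dye and quencher. Agonist activity is taken from the 110 s fluorescence read following compound pin-transfer on an FDSS, before EC80 54-4 challenge.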
TRPML1 blocker: qHTS for Inhibitors of the Human Mucolipin Transient Receptor Potential 1 (TRPML1); actives 0.02% (n = 390,000); AID 624415, 2012; Mucolipin-1 (Homo sapiens), Q9GZU1; activity change, negative = inhibition, % (no concentration beside the values); TRPML1-inducible cells, Ca2+ dye fluorescence, FDSS; active compounds read low; inhibition of EC80 agonist-evoked calcium signal; in the data active means activity change below about -50%; inconclusive means about -30% to -50%; inactive means above about -30%;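 further: stimulus is agonist 54-4 at its EC80 concentration; on the % scale 0 is the no-effect control and ±100 the full control effect; compound concentration not given in the record; the text of the record puts the active cut at -80%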
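Tet-induced TRPML1-DL cells loaded with Ca8 no-wash calcium dye were read kinetically on FDSS. Compound addition was followed by EC80 agonist 54-4 (4 uM final); inhibition was read over 110 s.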
Six1-Eya2 blk: qHTS Assay for Inhibitors of the Six1/Eya2 Interaction; Homeobox protein SIX1 (Homo sapiens) + Protein phosphatase EYA2 (Homo sapiens), …; AID 651725, 2012; actives 0.56% (n = 360,000); AlphaScreen GST-Six1/His-Eya2 binding, biochemical; active compounds read low; control for the full effect not named in the record; activity change, % (test concentration not listed); in the data active = activity change below about -65%; inconclusive = about -30% to -65%; inactive = above about -30%; further: on the % scale 0 is the no-effect control and ±100 the full control effect
Target sequence (O00167 whole entry, looked up): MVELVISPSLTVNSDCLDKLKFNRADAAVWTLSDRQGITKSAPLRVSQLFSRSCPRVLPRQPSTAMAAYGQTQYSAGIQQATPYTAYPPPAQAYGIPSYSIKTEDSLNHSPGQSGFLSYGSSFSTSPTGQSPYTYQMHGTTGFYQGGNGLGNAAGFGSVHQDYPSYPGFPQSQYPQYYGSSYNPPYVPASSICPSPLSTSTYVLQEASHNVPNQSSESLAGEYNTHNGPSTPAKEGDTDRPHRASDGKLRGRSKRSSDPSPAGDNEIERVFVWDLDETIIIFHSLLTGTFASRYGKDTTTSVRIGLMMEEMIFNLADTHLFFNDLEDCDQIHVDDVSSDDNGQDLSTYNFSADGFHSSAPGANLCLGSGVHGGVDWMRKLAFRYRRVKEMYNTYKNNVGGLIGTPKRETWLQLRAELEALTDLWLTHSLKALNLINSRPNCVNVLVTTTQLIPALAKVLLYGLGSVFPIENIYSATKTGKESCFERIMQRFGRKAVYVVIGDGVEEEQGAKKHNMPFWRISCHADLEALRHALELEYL
Target sequence (Q15475 whole entry, looked up): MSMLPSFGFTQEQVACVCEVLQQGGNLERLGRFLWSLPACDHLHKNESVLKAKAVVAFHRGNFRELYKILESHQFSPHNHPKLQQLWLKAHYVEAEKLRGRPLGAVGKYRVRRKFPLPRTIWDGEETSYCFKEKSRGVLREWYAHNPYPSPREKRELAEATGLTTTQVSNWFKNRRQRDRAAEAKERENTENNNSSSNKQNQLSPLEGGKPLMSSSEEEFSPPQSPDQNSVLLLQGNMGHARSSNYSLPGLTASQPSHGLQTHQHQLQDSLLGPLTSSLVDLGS
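AlphaScreen with GST-Six1 and His-Eya2 (5X mix: 250 nM and 500 nM), glutathione donor and nickel acceptor beads; buffer 50 mM Tris pH 8.0, 300 mM NaCl, 1 mM TCEP; 1 h at 37 C in the dark.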
D2 ag: Beta-Arrestin HTS for Positive Allosteric Modulators of the Human D2 Dopamine Receptor: Agonists. D(2) dopamine receptor (Homo sapiens), P14416. DiscoveRx PathHunter D2 beta-arrestin, luminescence, 90 min; 100% = 57 uM dopamine signal. activation, % (concentration not given with the values). actives 0.084% (n = 360,000); in the data active = activation above about 40%; inconclusive = about 15% to 40%; inactive = below about 15%; further: compound concentration not given in the record; the text of the record calls up to 30% inactive
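DiscoveRx PathHunter D2 beta-arrestin cells (2,100/well) attached overnight, then compound-stimulated 90 min at 37 C in HBSS/10 mM HEPES/0.1% Tween-20 buffer; beta-galactosidase complementation read by luminescence after 1 h at ambient temperature. Dopamine 57 uM final (EC100) as control.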
PINK1 expr mod: A Quantitative High throughput Screen to Identify Chemical Modulators of PINK1 Expression; PINK1 immunofluorescence, high-content cytometry, 24 h; Potency, µM (doses to about 76.6 µM), without a hit: at the highest dose activation (PINK1 increase), hits mostly activators; actives 0.2% (n = 410,000); AID 624263, 2012; active = well fitted activation curve with a large enough effect; inconclusive = small, poorly fitted or top-dose-only effect; inactive = flat fitted curve, though single readings scatter; cell line not stated here;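 further: potency means the concentration at half of the fitted maximal effect; % of control where 0% means no effect; nearly all actives have a fitted effect of over 65% in size; a mitochondrial uncoupler was the plate control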
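Compound titrations (5 concentrations, 24 h) on a stable cell line; DMSO and CCCP controls. Endpoint: fixed-cell PINK1 immunofluorescence with mitochondrial, cell and nuclear markers, scanned by microplate cytometer.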
D2 potentiator: Beta-Arrestin HTS for Positive Allosteric Modulators of the Human D2 Dopamine Receptor: Potentiators. D(2) dopamine receptor (Homo sapiens), P14416. DiscoveRx D2 beta-arrestin cells, luminescence, 90 min; 100% = 57 uM dopamine signal. potentiation, % (concentration not given with the values). actives 0.23% (n = 360,000); active = potentiation of 50% or more; inconclusive = 30% to 50%; inactive = 30% or less;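 further: compound concentration not given in the record; tested on top of an EC20 dose of dopamine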
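PathHunter D2 cells, attached overnight at 37 deg C, received compound in DMSO plus dopamine at EC20 (50 nM final) for 90 min at 37 deg C. Beta-arrestin recruitment was read as luminescence after 1 h with detection reagent at ambient temperature.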
The depositor's hits bear a star; u = inconclusive; x = not tested or not shown; & = joins results of further samples; [ ] = remark or other dose. Compounds were not picked by outcome; about 1% have a hit in one of these screens.

item	structure	TRPML1 ag	TRPML1 blocker	Six1-Eya2 blk	D2 ag	PINK1 expr mod	D2 potentiator
1	COc1cccc(NC(=O)COc2ccc(S(=O)(=O)NC(C)C)cc2)c1	0.5	5	-6	1.2	3.1%	2
2	CCOc1ccc(OCC)c(NC(=O)CN(C)S(=O)(=O)c2ccc3[nH]c(=O)oc3c2)c1	1.7	19	x	x	-0.8%	x
3	CC1=C(C#N)C(NC(=O)c2ccc(C)cc2)(C(F)(F)F)C(=O)N1 (configuration not stated)	-0.2	-19	2	-3.4	1.7%	-13
4	COc1ccc(CCNC(=O)c2cc3c(=O)n4ccccc4nc3n(C3CCCCC3)c2=N)cc1	0.2	-1	0	-0.7	u	-4
5	Cc1nc2ccccc2n1CCc1nc2c3ccccc3nc(SCC(=O)Nc3cccc(C(F)(F)F)c3)n2n1	0.7	-11	x	x	-1.3%	x
6	O=C(Cn1ncc(N2CCCC2)c(Br)c1=O)c1ccc(Cl)cc1	-1.7	-3	0	6.3	-2.4%	0
7	Cc1cc(C)c(C)c(C(=O)CSc2nnc(-c3ccc4[nH]c(C)c(C)c4c3)o2)c1C	1.2	6	-7	-3.5	1.3%	-3
8	Nc1nc(SCC(=O)Nc2ccc(S(N)(=O)=O)cc2)n[nH]1	-1.1	-16	5	-1.1	3.3%	-4
9	CC(C)C(=O)Nc1ccc(-c2csc(-c3ccccc3)n2)cc1	-0.1	1	0	1.5	u	-25
10	CC(C(=O)NCc1cccnc1)c1ccc([N+](=O)[O-])cc1 (configuration not stated)	0.0	-2	5	-3.0	2.0%	-4
11	Fc1ccccc1CSc1nnnn1-c1ccc2c(c1)OCO2	-0.1	-11	3	-6.0	-0.6%	-3
12	Cc1ccccc1-n1c(SCC(N)=O)nc2sc(-c3ccccc3)cc2c1=O	-1.4	17	-2	-0.1	1.7%	-14
13	CCNC(=O)NC(=O)C(C)Sc1nc2ccccc2n1CC(C)C (configuration not stated)	1.2	9	6	-3.6	0.3%	-23
14	O=C1c2ccccc2C(=O)N1/N=C/c1ccc(Oc2ccc([N+](=O)[O-])cn2)cc1	0.6	-18	3	-3.4	4.5%	-5
15	CCOc1ccccc1CNC(=O)c1nn(CC)cc1[N+](=O)[O-]	0.4	11	8	0.0	6.4%	-10
16	O=C(CCC1COc2ccccc2O1)NCc1ccco1 (configuration not stated)	-0.4	-3	3	-4.6	-2.3%	-3
17	CCn1cc(C(=O)OCC(=O)Nc2cccc(Cl)c2Cl)c(=O)c2ccc(C)nc21	0.0	-8	5	2.9	-1.8%	5
18	CCOc1ccc(C(=O)NCCNC(=O)c2ccc(OCC)cc2)cc1	1.4	29	-4	2.0	4.9%	-1
19	Cc1ccc(-c2cc(C(=O)NC3CCN(Cc4ccccc4)CC3)c3ccccc3n2)cc1	-0.5	-9	-2	-6.5	3.9%	-38
20	CC(=O)NC(=O)COC(=O)c1ccc2ncsc2c1	-0.1	2	4	-7.3	2.0%	-3
21	CCCn1c(CN2CCN(C(=O)OCC)CC2)nc2c1c(=O)n(C)c(=O)n2C	-0.5	35	1	-3.8	-0.3%	-2
22	CC(=O)Nc1ccc(NC(=O)CC2CCCC2)cc1	0.6	-1	6	-1.2	3.3%	-3
23	CCCCCCNC(=O)c1cn(CC)c2cc(N3CCN(C)CC3)c(F)cc2c1=O	0.4	-27	2	-5.7	-2.7%	-5
24	O=C(NCc1ccco1)c1cc(S(=O)(=O)N2CCOCC2)c(Cl)cc1Cl	-0.3	11	9	-4.5	1.0%	-18
25	CC(C)(c1ccccc1)c1ccc(OCCCNCCO)cc1	-0.2	2	1	-3.5	3.9%	-13
26	Cc1ccc(C(=O)C[n+]2ccc3ccccc3c2)cc1	1.2	22	12	1.2	-1.7%	-16
27	O=C(/C=C/Nc1ccccc1C(=O)O)c1cccs1	0.3	-12	-2	-0.9	7.0%	-9
28	Fc1cc2[nH]c(=S)[nH]c2c(Br)c1N1CCSCC1	-0.2	6	-10	3.6	0.9%	-18
29	Cc1cc(C)cc(N(C(=O)c2sc(C)nc2C)C(C(=O)NCc2ccco2)c2ccccc2)c1 (configuration not stated)	1.1	-9	-3	0.5	u	-13
30	O=C(Nc1ccc(Cl)cc1)[C@@H]1[C@@H]2C(=O)N(c3ccc(Cl)cc3)C(=O)[C@@H]2[C@H]2C=CC=NN21	-0.1	-4	-21	-0.9	0.6%	-10

More entries follow.
item	structure	TRPML1 ag	TRPML1 blocker	Six1-Eya2 blk	D2 ag	PINK1 expr mod	D2 potentiator
31	Cc1ccccc1OCC(=O)NNC(=O)Nc1ccc(Cl)cc1	1.9	-12	0	0.4	1.0%	-15
32	COC(=O)CSc1nnc(CNc2ccc(OC)cc2)n1C	1.0	-14	-1	-0.4	0.3%	-8
33	Cn1c(=O)c(=O)n(C)c2cc(S(=O)(=O)N3CCN(c4cccc(C(F)(F)F)c4)CC3)ccc21	-0.4	6	2	-3.2	u	-14
34	CCN(CC)S(=O)(=O)c1ccc(NC(=O)CO/N=C(\N)c2ccccc2)cc1	-0.3	12	6	-1.0	-1.8%	1
35	CCc1ccc(CN(C)CC(=O)Nc2ccc3c(c2)CCC3)cc1	0.3	-5	3	-2.4	u	-8
36	COC(=O)c1ccccc1NC(=S)N1CCOCC1	0.0	-12	9	-2.4	-0.2%	-25
37	CN1C=CC2=C(C#N)C(N)C(C#N)(C#N)[C@H](c3ccccc3)[C@H]2C1 (some centres not stated)	5.2	29	-1	-3.6	13µM*	-26
38	O=C(Cc1nnc(NC(=O)Nc2ccc(F)cc2)s1)NCc1ccccc1	-0.1	25	7	-7.0	6.5%	-6
39	COC(=O)C(CCSC)NC(=O)c1c(C)oc2ncn(CC(C)C)c(=O)c12 (configuration not stated)	-0.9	-14	x	x	3.4%	x
40	COc1cc2nc(NCCc3ccccc3)n3nc(-c4cccnc4)nc3c2cc1OC	-0.1	23	x	x	0.3%	x
41	CCCn1c(CNc2ccccc2O)nc2ccccc21	-0.6	0	u	8.4	-0.3%	u
42	CCOC(=O)c1c(C)[nH]c(C)c1C(=O)COC(=O)/C=C/c1ccco1	0.9	10	-8	-3.7	0.4%	-13
43	COc1ccc(C(=O)NCC(c2cccs2)S(=O)(=O)c2ccc(F)c(C)c2)cc1 (configuration not stated)	0.5	4	x	x	1.9%	x
44	Cc1nn(C/C(C#N)=N\O)c(C)[n+]1N	2.6	3	2	-1.4	-1.8%	1
45	S=C(NC1CCCC1)NN1CCOCC1	-0.5	-13	0	2.0	0.8%	-2
46	CC1(C)CC(=O)C/C(=N\NC(=O)C2C3CCCCC32)C1 (configuration not stated)	-0.4	0	4	-2.5	-0.4%	3
47	O=C(O)/C=C/C(=O)NNC(=O)c1ccc(Cl)cc1Cl	-0.6	-7	-1	3.4	0.4%	-3
48	COc1ccc(CC(=O)Nc2ccc(C(=O)NC(C)(C)C)cc2)cc1OC	-0.2	-5	-2	1.3	3.1%	-4
49	COc1ccccc1C(C)NC(=O)CN(C)CC(=O)Nc1c(C)cccc1C (configuration not stated)	1.1	0	12	-1.9	3.6%	-3
50	CCN(CC)S(=O)(=O)c1cc(NC(=O)C2CSC3(C)CCC(=O)N23)ccc1C (configuration not stated)	-0.4	5	-2	-4.2	2.0%	1
51	CC(C)(C)NC(=O)CSc1ncnc2c1cnn2-c1ccccc1	-1.2	1	-6	2.8	2.8%	-2
52	CC1NC(C)(C)Cc2c1ccc1ccccc21 (configuration not stated)	-0.4	-3	2	-4.6	0.6%	-18
53	Cc1ccc(CNc2nc(N)c([N+](=O)[O-])c(Nc3cccc(F)c3)n2)cc1	-0.4	-10	0	2.1	x	-6
54	CCC1CN(S(=O)(=O)c2ccc3c(c2)NC(=O)CC(=O)N3)c2cc(Cl)ccc2O1 (configuration not stated)	0.5&0.1	-6&3	4	-0.8	0.8%&-0.6%	3
55	OCCNCc1ccc(OC2CCCC2)cc1	0.3	-3	0	-0.6	8.5%[38.3 µM]	-6
56	Cc1ccc(-c2nc(C3CCN(S(=O)(=O)c4ccc(C(F)(F)F)cc4)CC3)no2)cc1	1.4	13	16	1.8	7.4%	-4
57	Cc1ccc(C(=O)NCC(=O)NCC(=O)OCC(=O)c2ccc([N+](=O)[O-])cc2)cc1	-0.8	-3	0	5.5	-5.0%[38.3 µM]	4
58	O=C1CSc2ccccc2N1Cc1ccccc1F	3.2	8	12	-6.3	-2.1%[38.3 µM]	-4
59	Cc1[nH]c2ccc(Br)cc2c(=S)c1C/C=C/Cl	0.0	-17	-8	-0.9	u	-20
60	O=C1NC(c2cccc(Cl)c2)Nc2ccccc21 (configuration not stated)	-0.7	-2	-1	-5.1	1.9%	-3
61	COc1ccc(N=CC2=C(O)c3ccccc3C2=O)c(OC)c1	-0.2	-3	-8	0.2	-0.5%	24
62	C/C(=N\NC(=O)COc1ccccc1)c1cccs1	-0.5	18	10	-3.7	0.7%	-11

In the list so far, 3 have a cyano group.
item	structure	TRPML1 ag	TRPML1 blocker	Six1-Eya2 blk	D2 ag	PINK1 expr mod	D2 potentiator
3	CC1=C(C#N)C(NC(=O)c2ccc(C)cc2)(C(F)(F)F)C(=O)N1 (configuration not stated)	-0.2	-19	2	-3.4	1.7%	-13
37	CN1C=CC2=C(C#N)C(N)C(C#N)(C#N)[C@H](c3ccccc3)[C@H]2C1 (some centres not stated)	5.2	29	-1	-3.6	13µM*	-26
44	Cc1nn(C/C(C#N)=N\O)c(C)[n+]1N	2.6	3	2	-1.4	-1.8%	1
